NPYLR7 ag: agonists of mosquito NPYLR7 receptor, primary screen, cell-based, Aedes aegypti, calcium fluorescence, mosquito biting behavior. Aedes aegypti neuropeptide Y-like receptor 7 (NPYLR7). HEK293T NPYLR7/Galpha15, GCaMP6s calcium fluorescence. activation, % at 10 µM. 0.15% of 270,000 active. AID 1259423, 2018; in the data active means activation above about 40%;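 further: 0% = vehicle and 100% = reference agonist at the receptor; some compounds past the cut are filed as inactive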
NPYLR7 ag max-min: also measured in NPYLR7 ag; calls as there; activation, %; measured here: Max-Min RFU normalised activation; some inactives read as strong as hits;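 span of the calcium signal over five minutes; 0% = vehicle and 100% = native peptide agonist; compound fluorescence can raise it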
* marks the source's active call; other numbers are inactive results; & = joins results of further samples.

mol	NPYLR7 ag	NPYLR7 ag max-min
CCN(CC1CCN(C2CCN(C)CC2)CC1)C(=O)C1=CCCC1	2	-1
COCCCN(CC(=O)N1CCc2sccc2C1COc1cccc(F)c1)S(=O)(=O)c1ccc(C)cc1 (stereo not given)	0	6
COc1ccc(OC)c(-c2csc(=Nc3cccnc3)n2C2CCCC2)c1	4	2
C=CCNc1ccccc1C(=O)N1CCC(C(O)Cc2ccccc2)CC1 (stereo not given)	32	18
Cc1cccc(C)c1NC(=O)Nc1nnc([C@H]2C[C@H](O)[C@@H](CO)O2)s1	7	3
CC(C1CC1)N(Cc1ccccc1)C(=O)Nc1nc2ccsc2s1 (stereo not given)	12	10
COc1cccc(C(=O)N(Cc2ccc(OC)c(OCc3nc(CO)cs3)c2)Cc2ccco2)c1	7	10
COC(=O)c1ccc(C(C)Sc2nc(C3CC3)nc(C)c2C#N)o1 (stereo not given)	0	18
CCCC(=O)Nc1c(-c2cccc(F)c2)nc2cc(C)ccn12	-6	0
CC(NC(=O)c1cc2ccccc2cc1NC(=O)C1CC1)c1cccc(F)c1 (stereo not given)	6	6
COc1cn(CC(N)=O)c(CSc2nnnn2C)cc1=O	-3	-7
CNC(=O)C(C1CCCC1)N1CCN(C(=O)Nc2ccc(F)cc2)CC1 (stereo not given)	-18	-16

The last two entries of the part before open the next one.
mol	NPYLR7 ag	NPYLR7 ag max-min
COc1cn(CC(N)=O)c(CSc2nnnn2C)cc1=O	-3	-7
CNC(=O)C(C1CCCC1)N1CCN(C(=O)Nc2ccc(F)cc2)CC1 (stereo not given)	-18	-16
Cn1nnnc1-c1cccc(NC(=O)C(C)(C)C#N)c1	9	5
CSCc1ccc(C(=O)N(C)Cc2cc(C(C)C)on2)o1	2	2
CN1C(=O)NC(c2ccc(F)cc2)C2=C1CN(CC(=O)NCCc1ccc(Cl)cc1Cl)C2=O (stereo not given)	-1	9
COc1ccc(NC(=O)CCN(CCCN2CCOCC2)c2nc(-c3cccs3)nc3ccccc23)cc1	11	21
CCN(CC)CCCn1c2c(c(SCC(=O)Nc3cccc4ccccc34)nc1=O)CCC2	-1	7
Cc1onc(-c2ccccc2)c1-c1ccc(S(N)(=O)=O)cc1	-7&-8	-12&-14
Cc1cc(C)c(NC(=O)Cn2cccc(-c3nc(-c4ccc(Cl)cc4)no3)c2=O)c(C)c1	-4	-7
CCCCOc1ccc(C(=O)NCCNc2cc(-n3ccnc3C)ncn2)cc1	-19	-22
CN1C(=O)CC(C(=O)O)SC1=Nc1ccc(Br)cc1 (stereo not given)	-10	-14
COc1ccc(CNc2nnc(SCC(=O)N3CCCCCC3)s2)cc1	5	11
COc1ccc(C2=NN3C(C2)c2ccccc2OC3c2ccncc2)cc1OC (stereo not given)	1	1
CC(Sc1ccc(F)c(F)c1)C(=O)NC(=O)Nc1ccccc1 (stereo not given)	0	-3
CC(C)(C)n1nc2c(c1NC(=O)C1(c3ccc(Cl)cc3)CCCC1)CS(=O)C2 (stereo not given)	-3	-5
CCC(C)Nc1cc(C)nc2c(-c3ccc(C)cc3)cnn12 (stereo not given)	-5	-6
CCOC(=O)c1c(C)n(-c2ccccc2)c2ccc(OC(=O)c3ccc(S(=O)(=O)N(C)C)cc3)cc12	-7	-6
CCOC(=O)C1=C(COC(=O)CCN2C(=O)C3CC=CCC3C2=O)NC(=O)NC1C (stereo not given)	1	0
CNS(=O)(=O)CCNc1nc(C)nc2c1CCN(C)CC2	12	-1
CN(C)c1ccc(NC(=O)CCN2C(=O)c3ccccc3C2=O)cc1	0	-1
CCOc1ccccc1NC(=O)c1cc(S(=O)(=O)NCCc2ccc(Cl)cc2)ccc1F	-4	-6
COCCN(CCC(=O)NCCC(C)C)c1nc(Cc2ccccc2)ns1	-7	2
CSc1nn(CC(=O)Nc2ccc(C)c(F)c2)c(N)c1-c1nc(-c2ccc3c(c2)OCO3)no1	19	8
C[C@@H]1CCC2C(C)(C)C3CC21CC[C@@]3(C)O (stereo not given in full)	1	2
O=C(NCc1cccs1)c1cc(Br)ccc1F	0	0
CCOc1cc(C(=O)ON=C(N)Cc2ccc([N+](=O)[O-])cc2)cc(OCC)c1OCC	-4	-10
CC1=C(C(=O)OC2CCCC(C)C2)C(c2ccccc2Cl)NC(=O)N1C (stereo not given)	-2	-7
CN(C)c1oc(-c2ccc(COc3ccccc3)o2)nc1C#N	-1	17
Cc1cc(C(=O)N(C)CCc2ccncc2)nn1-c1ccccc1	16	8
CCOc1cc(C=C2N=C(c3ccc(OC(C)C)cc3)OC2=O)ccc1OC(C)C(=O)N(C)C (stereo not given)	0	6
CCN(Cc1noc(CC(C)C)n1)Cc1cccc(F)c1O	7	5
CCOc1ccc(OCC)c(NC(=O)CSc2nccnc2N2CCSCC2)c1	4	7
CCC1CCC2(CC1)NC(=O)N(CC(=O)c1ccc(C)c(C)c1)C2=O (stereo not given)	-6	-10
COC(=O)c1ccc2c(=O)[nH]c(CCS(=O)(=O)c3ccc(C)cc3)nc2c1	6	4
O=C(CCC1CCCCC1)N1CCN(c2ncnc3c2nnn3Cc2ccccc2)CC1	-4	-14
O=C(CCCn1cnnn1)NCc1cccnc1N1CCCCCCC1	-5	-5
c1ccc(C2=NN(c3ccccc3)C(c3ccco3)C2)cc1 (stereo not given)	-1	-4
COc1ccc(C=Nc2c(C)n(C)n(-c3ccccc3)c2=O)cc1OC	-5	-11
CCOCCn1ccc2c(NC(=O)C(C)Oc3ccccc3)c(OC(=O)N(CC)CC)ccc21 (stereo not given)	-2	2
COc1ccc(C=Cc2sc3ccccc3[n+]2CCCS(=O)(=O)O)cc1	6	6
COC(=O)C(C(=O)OC)c1ccc([N+](=O)[O-])o1	-5	-6
COCC(=O)Nc1ccc(Cl)c(-c2nc3cc(Cl)ccc3o2)c1	23	27
O=C1OCCN1CCSCc1ccccc1	5	2
CC(C)CNc1nnnc2c1sc1nc(N3CCOCC3)c3c(c12)CCCC3	9	5
COCc1nc(-c2cccc(CN3CCN(C(=O)c4ccc5cc[nH]c5c4)CC3)c2)no1	8	20
COc1cc(C)c(COC(=O)c2cc(C)oc2C)cc1OC	-5	-6
O=C(c1ccc2oc(Cc3ccccc3)nc2c1)N1CCN(C2CCCC2)C(=O)C1	21	8
Cc1cc(C(=O)CCC(=O)N2CCCC(c3nnc4n3CCC4)C2)c(C)s1 (stereo not given)	-2	-3
CCN1CCN(C(=O)C(C)N2CCCC(c3nc(C)no3)C2)CC1 (stereo not given)	2	2
CC(C)CN(CC(=O)Nc1cc(-c2ccccc2)nn1-c1ccccc1Cl)C(=O)c1ccc2c(c1)OCO2	12	14

Structures shown so far that have a Cl atom:
mol	NPYLR7 ag	NPYLR7 ag max-min
CN1C(=O)NC(c2ccc(F)cc2)C2=C1CN(CC(=O)NCCc1ccc(Cl)cc1Cl)C2=O (stereo not given)	-1	9
Cc1cc(C)c(NC(=O)Cn2cccc(-c3nc(-c4ccc(Cl)cc4)no3)c2=O)c(C)c1	-4	-7
CC(C)(C)n1nc2c(c1NC(=O)C1(c3ccc(Cl)cc3)CCCC1)CS(=O)C2 (stereo not given)	-3	-5
CCOc1ccccc1NC(=O)c1cc(S(=O)(=O)NCCc2ccc(Cl)cc2)ccc1F	-4	-6
CC1=C(C(=O)OC2CCCC(C)C2)C(c2ccccc2Cl)NC(=O)N1C (stereo not given)	-2	-7
COCC(=O)Nc1ccc(Cl)c(-c2nc3cc(Cl)ccc3o2)c1	23	27
CC(C)CN(CC(=O)Nc1cc(-c2ccccc2)nn1-c1ccccc1Cl)C(=O)c1ccc2c(c1)OCO2	12	14

More entries:
mol	NPYLR7 ag	NPYLR7 ag max-min
CC1=C(C(=O)OCCc2ccccc2)C(c2ccc(C(F)(F)F)cc2)NC(=O)N1C (stereo not given)	-12	-15
Cc1ccc(SCC(=O)Nc2sc3c(c2C#N)CCC(C)C3)cc1 (stereo not given)	-1	-7
Cc1c(C(=O)OCC(=O)NC(N)=O)sc2ccccc12	-4	-6
COc1ccc(C)cc1N1C(=O)C(c2c(-c3ccccc3)[nH]n(C(C)(C)C)c2=O)=C(N2CCOCC2)C1=O	6	9
Cc1cc(C(=O)Nc2sc3c(c2C#N)CCC3)no1	-1	-3
COC(=O)C(CCSC)NC(=O)c1csc2nc(-c3ccccc3)cn12 (stereo not given)	7	3
COc1ccc(C(=O)OCC(=O)Nc2c(C)cccc2C)c(OC)c1OC	15	3
COc1ccc(S(=O)(=O)CCC(=O)N(Cc2ccccc2)c2nc3ccccc3s2)cc1	11	3
COc1cccc(-c2nnc(SCC(=O)O)n2-c2cc(C)nn2C)c1	6	2
COc1ccc(C(=O)Nc2sc3c(c2C#N)CCC3)cc1OC	-3	-7
Cc1nn(-c2ccc(F)cc2)c(Cl)c1C=C(C#N)C(=O)NC1CCCCC1	5	1
CC(=O)Nc1ccc(NC(=O)Cn2nc(-c3cccs3)c3sc(C)nc3c2=O)cc1	5	4
C=CCN(Cc1cnn(CC)c1)Cc1ccccc1C	-4	-11
CC(=O)Nc1ccc(SCCCC(=O)N2CCC(Cc3ccccc3)CC2)nn1	-3	-4
COC(=O)c1sc(NC(=O)c2c(-c3ccccc3)noc2C)c(C(=O)OC)c1C	-3	-5
Oc1ccc(Br)cc1C=NN1CCCCC1	5	4
COc1ccc(N2C(=O)CN(CCCc3ccccc3)C3CS(=O)(=O)CC32)cc1Cl (stereo not given)	4	3
COc1ccc(C(=O)N2CCC(CCc3ccc4c(c3)OCO4)CC2)cc1OC	21	16
O=C(c1ccc(CSc2ccc(Cl)cc2Cl)cc1)N1C2CCC1CC(Oc1ccc3c(c1)OCO3)C2 (stereo not given)	-9	-14
Cc1c(C(=O)N2CCN(S(C)(=O)=O)CC2)nnn1-c1nc2c(s1)CCCC2	17	14
Cn1c(=O)c2c(ncn2CCCC(=O)OC2CCCCC2)n(C)c1=O	6	5
CCCCOC(=O)c1ccc2c3c(onc13)-c1ccccc1C2=O	-15	-21
CO[C@H]1[C@H](NC(=O)c2ccccn2)c2ccccc2C12CCN(C(=O)CN1CCCC1=O)CC2	4	-3
CCCCSc1nnc2n1CCN2c1ccc(OC)cc1	5	5
Cc1ccc(N=Nc2c(O)[nH]c3ccc(Br)cc23)cc1C	0	-5
CC(C)CN(CCC(=O)NCc1ccccc1)c1nc(Cc2ccccc2)ns1	25	28
Cc1ccc(-c2nc(C)c(C)c(N3CCN(C(=O)Nc4cccc(C)c4C)CC3)n2)cc1	20	15
CC1=Nc2ccccc2C1=Cc1c(O)n(-c2ccccc2)c(=S)[nH]c1=O	0	-7
O=C1NC(CCc2ccccc2)c2nc(-c3ccc(Cl)cc3)ncc21 (stereo not given)	15	10
CC(=O)N[C@H]1C[C@@H](c2ccc3c(c2)OC(F)(F)O3)O[C@@H](C(C)C)C1	3	1
COc1ccc(C(=O)N2CC=C(c3ccccc3)CC2)cc1OC1CCN(C(C)=O)CC1	7	7
COc1ccc(CN(Cc2ccccn2)CC(C)C)c(Cl)c1O	0	0
CCOc1ccc(Nc2nc3c([nH]2)c(=O)[nH]c(=O)n3C)cc1	-3	-3
CCOc1ccccc1CN1CCN(Cc2ccc(C#CCCO)cc2)CC1CCO (stereo not given)	-1	-4
CN(CCC(=O)N1CCOCC1)Cc1cccc(C#N)c1	3	1
O=C(c1ncoc1C1CC1)N1CCOC(c2ccc(Cl)c(Cl)c2)C1 (stereo not given)	1	-4
O=C(NC1CCCCC1)c1ccc(-c2cn[nH]c2)c2ccoc12	13	29
COc1cc2c(cc1OC)CN(C1Sc3ccccc3NC1=O)CC2 (stereo not given)	-1	-2
NC(=O)c1ccccc1OCc1cc2c(cc1Br)OCO2	8	8
COc1ccc(C(C)C)cc1S(=O)(=O)n1cc(C)nc1-c1ccccc1	-1	1
CC(C)C(CNC(=O)c1cn[nH]c1C(F)(F)F)c1ccccc1 (stereo not given)	-2	11
O=C(NC(C(=O)N1CCCC1)C1CCN(C(=O)c2ccccc2F)CC1)c1cccs1 (stereo not given)	6	14
Cc1cc(C)c(Nc2ccnc(Nc3ccc(C#N)cc3)n2)c(C)c1	-1	-2
O=C(COC1CCCC1)OCc1sc2ccccc2c1Cl	4	1
O=C(NCCn1nc(-c2cccnc2)ccc1=O)NCc1ccccc1	8	1
O=C(CC1=CCNCC1)N1CCC(c2cc(-c3ccccc3Cl)n[nH]2)CC1	-1	-3
CC1(C)C2CCC1(C)C(NS(=O)(=O)Cc1ccccc1)C2 (stereo not given)	1	-1
CN(C)CC1CCCN1c1nccc(-n2cccn2)n1 (stereo not given)	-6	-12
CCOc1ccc(NC(=O)N2CCc3cc(OC)c(OC)cc3C2CNS(=O)(=O)c2ccc(Cl)cc2)cc1 (stereo not given)	2	5
COc1ccc(-n2nnnc2SCc2ccc(C(=O)N3C4CCC3CC(Oc3ccc(F)cc3F)C4)cc2)cc1 (stereo not given)	-7	-8
CC(C)C(=O)Nc1ccc(SCC(=O)c2ccccc2)nn1	-1	0

These rows are one share of the data (hit frequency here may not be typical).
